Sa ugtP lethal: growth inhibition of S. aureus ugtP deletion strain. S. aureus RN4220 ugtP deletion, OD600 growth, 16 h; some inactives read as strong as hits. growth inhibition, % (no concentration beside the values). 330,000 tested, 0.54% active;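 active = z-score under -3 and OD600 up to 0.15 on both plates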;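 also: plate controls were untreated wells for no effect and antibiotic for full effect; wells of about 80 µL received 100 nL stock; the first replicate is given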
BJeLR lethal: kills HRASV12-expressing BJeLR cells | BJeLR (HRASV12) viability, CellTiter-Glo ATP luminescence, 48 h; reference of the scale not given here | inhibition, % (no concentration beside the values) | 300,000 tested, 0.17% active;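 active = replicate mean above 50%; inconclusive = above 50% but judged a plate artefact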;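 also: 50 nL library stock added to about 25 µL; numbers are from one replicate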
Mtb hypoxia inh: reduces hypoxia-regulated biosensor signal in M. tuberculosis. M. tuberculosis hypoxia-regulated fluorescent reporter, fluorescence. 300,000 tested, 0.1% active. fluorescence inhibition, % (concentration not given with the values). AID 1159583;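 active = 35 to 45% if threefold the growth effect, above 45% if 1.5-fold the growth effect; inactive = the rest, general growth blockers included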;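 also: wells of about 50 µL received 100 nL stock; 0% = vehicle wells and 100% = reference inhibitor wells; whole bacteria with a GFP reporter of the hypoxia response; strong numbers were not always called active; many hits fall short of the cut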
Sa RN4220 lethal: kills Staphylococcus aureus RN4220 | AID 1259311 | S. aureus RN4220 growth, OD600, 16 h | inhibition, % (no concentration beside the values) | 330,000 tested, 0.33% active;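 active = z-score of -3 or lower and OD600 up to 0.18 on both plates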;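 also: plate controls were untreated cells for no effect and reference antibiotic for full effect; stock transfer was 100 nL into about 80 µL; one replicate is shown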
Bead autofluor: flagged as autofluorescent in microsphere protease counterscreen | 360,000 tested, 3.1% active | compound autofluorescence counterscreen, microsphere flow cytometry; active compounds read high | AID 624483 | fluorescence intensity (concentration not given with the values);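 active = at least 3 SD above the mean of all compounds, about 16000 in these data; inconclusive = too few beads counted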;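 also: 100 nL of 1 mM stock went into each well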
PrP UTR inh: inhibition of PrP 5' UTR reporter expression. cell-based PrP 5' UTR mRNA reporter, plate reader. inhibition, % (concentration not given with the values). 340,000 tested, 0.35% active;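 active = every replicate at 50% or more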;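 also: 0 = median of the neutral control wells; tested in H4 reporter cells; numbers are from one replicate; inactives centre near -14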
Mtb hypoxia inh growth: also measured in Mtb hypoxia inh; calls as there; growth inhibition, %; measured here: M. tuberculosis growth (absorbance);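 0% = vehicle and 100% = reference antibiotic; read after six days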
The depositor's hits bear a star; ? = inconclusive; / = not tested or not shown. An unsorted share of the library; overall some 4.1% were active at least once.

structure	Sa ugtP lethal	Mtb hypoxia inh growth	Bead autofluor	BJeLR lethal	Sa RN4220 lethal	Mtb hypoxia inh	PrP UTR inh
C[C@H](CO)N1C[C@H](C)[C@@H](CN(C)S(C)(=O)=O)Oc2ccc(NS(=O)(=O)c3ccccc3)cc2C1=O	-4	3	4190	/	-16	10	-15
Cc1ccc(C(=O)NC(C)c2ccc(-n3ccnc3)cc2)c(C)c1 (stereo unspecified)	2	3	6040	-6	1.9	12	-19
NC1=NC2(CCN(Cc3ccccc3)CC2)n2c(nc3ccccc32)N1	-8	12	9813	1	-3.4	-5	-12
CCOCCCNC(=O)c1cc(Sc2ccc(F)cc2)nc2ccccc12	5	12	2610	7	4.4	15	-5
CCOc1ccccc1CNC(=O)c1cc2oc3ccccc3c2n1C	15	13	10808	6	8.4	20	-12
CCCC(=O)N(CCN1CCOCC1)c1nc2c(F)cc(F)cc2s1	0	3	/	-1	5.3	-2	-17
CC(Oc1ccccc1)C(=O)Nc1nc(-c2ccncc2)cs1 (stereo unspecified)	-6	9	4697	/	-0.4	11	-18
CCN1C(=NN)c2cccc3cccc1c23	-10	5	/	/	-13	3	/
CN(CCc1ccccn1)C(=O)CCc1nnc(CCCc2ccccc2)o1	5	3	4330	-4	3.8	4	-84
Cc1ccc(NC(=O)CN(C)C(=O)COc2ncnc3ccc(Br)cc23)cc1	0	3	9052	/	2.4	0	-21
CCN(CC)S(=O)(=O)c1cccc(NC(=O)CN2C(=O)NC3(CCOc4ccccc43)C2=O)c1 (stereo unspecified)	-2	-4	6831	/	0.4	-8	-12
Brc1ccc(-c2csc(N3CCC(c4ccccc4)C3)n2)cc1 (stereo unspecified)	53	6	?	-7	-6.0	5	-25
COc1c2ccoc2cc2oc(C)cc(=O)c12	-8	/	5666	-1	5.4	/	0
O=c1cc(CCl)nc(Cc2c(Cl)cccc2Cl)[nH]1	-1	/	5194	4	8.8	/	-8
Cc1cc(OCC(=O)C(C)(C)C)c2c(-c3ccccc3)cc(=O)oc2c1	12	2	2875	-3	1.7	6	-34
COc1cccc(C=NNC(=O)c2nc(-c3ccccc3)cc(-c3ccccc3)n2)c1O	-8	7	/	/	4.9	7	/
CCN(CC)C(=O)Cn1cc(S(=O)(=O)CC(=O)Nc2ccccc2C)c2ccccc21	-1	-1	5092	-1	1.4	6	-20
Cc1cc(-n2nnc3ccccc32)nc2ccccc12	-11	-7	17243*	0	8.9	-2	-21
CC(=O)Nc1ccc(C(=O)NCCCOC(C)C)cc1	3	-1	4389	3	4.7	4	14
COc1ccc(OC(=O)COc2ccc(C)cc2)cc1	2	13	4431	9	0.9	6	-35
CC(C)c1ccc(N(CC(=O)NCCCN2CCOCC2)S(=O)(=O)c2ccccc2)cc1	6	3	5530	/	3.3	3	-7
CC(OC(=O)CCCc1nc2ccccc2s1)C(N)=O (stereo unspecified)	5	/	4363	-1	4.8	/	-13
COc1cccc(OC)c1C(=O)Nc1sc2c(c1C#N)CCC2	-5	7	4163	3	4.1	13	-47
CCOc1ccccc1NC(=O)C1CCCN(S(C)(=O)=O)C1 (stereo unspecified)	6	-4	2952	4	2.2	4	-5
Cc1ccc(-n2cccc2/C=C2/C(=N)N3C(=NC2=O)SN=C3S(C)(=O)=O)cc1Cl	30	2	7775	/	17	7	5
Cc1sc2nc(SCc3nc(-c4cccs4)no3)n(-c3ccccc3)c(=O)c2c1C	23	0	8760	-3	-0.7	7	-43
CC(C)(C)Sc1ccccc1S(=O)(=O)C(C)(C)C	10	16	3787	11	5.9	6	-33
Cc1nc2scc(C)n2c(=O)c1S(=O)(=O)Nc1ccc(N2CCN(C(=O)C(C)C)CC2)cc1	7	8	5418	17	1.6	11	-6
C=CCNC(=O)c1ccc(Sc2ccccc2)c([N+](=O)[O-])c1	0	/	2439	-2	-3.0	/	-25
COc1ccc(-c2nn(-c3ccccc3)cc2C(=O)NC2CC2)cc1	9	10	7901	/	2.8	10	-15
CCCCOc1cccc(C(=O)NNC(=S)NC2CCCCC2)c1	-7	4	2439	-4	3.2	3	-12
COc1ccccc1C(=O)NC(=S)Nc1ccc(N2CCOCC2)c(Cl)c1	8	-1	4344	4	20	-8	-21
O=C(NNC(=O)c1ccc(Cl)cc1Cl)c1cccs1	0	4	2229	-2	4.9	2	-34
O=C(CCN1CCN(S(=O)(=O)c2ccc(Cl)cc2)CC1)Nc1ccc(F)cc1	7	2	5738	15	-2.2	4	-19
O=C(/C=C/c1ccco1)Nc1nc(-c2ccc(F)c(F)c2)cs1	20	7	/	-13	1.8	1	/
Cc1ccc2nc(SCC(=O)NC3CCCCC3)nc(=O)n2c1	3	3	/	1	3.8	9	-6
CC(C)CCn1c(N2CCCC2)nc2c1c(=O)n(C)c(=O)n2C	8	6	3930	1	0.9	5	-10
CCCCCCC(=O)Nc1c2c(nc3ccccc13)N(C)CC2	2	/	2313	3	-1.1	/	-25
CCC(C)(C)NC(=O)C(c1ccc(F)cc1)N(Cc1cccc(OC)c1)C(=O)c1cnccn1 (stereo unspecified)	2	-3	3511	9	-0.1	3	2
CCC(C)Nc1cc(C)nc2ncnn12 (stereo unspecified)	7	9	4229	-3	2.8	-4	-14
CC(=O)CC(=O)Nc1ncccn1	3	-5	3513	5	1.1	0	-30
CS(=O)(=O)N(CC(=O)Nc1ccc2c(c1)OCCO2)Cc1ccc(Cl)cc1	-3	/	4287	/	-1.6	/	3
Cc1cccc(OCCSc2nc3c([nH]2)c(=N)ncn3Cc2ccccc2)c1	-7	10	2946	-15	-1.4	5	-10
O=C(NC(=S)Nc1ccccc1Br)C1CC1	10	4	4646	10	4.7	2	2
Clc1ccccc1OCCCCn1ccnc1	0	14	11053	5	7.8	13	-11
CC1CN=C(NCc2ccccc2)S1 (stereo unspecified)	-1	5	3817	2	2.7	1	-10
CC(C)c1ccc(/C=N/N2CCCCC2)cc1	/	/	4837	7	/	/	-141
Cc1ccc2c(c1)C(=O)N1[C@H]3c4cc(Cl)ccc4OC[C@@H]3[C@H](c3ccccc3)[C@]1(C)C(=O)N2	-27	-5	4376	/	-22	-6	-16
CCOc1cc(C=NNC(=O)COc2cccc(C)c2)ccc1OC(=O)c1cccs1	-5	9	/	/	6.0	8	/
O=C(c1cccc(S(=O)(=O)N2CCCCC2)c1)N1CCN(Cc2ccccc2)CC1	0	10	8598	/	-0.7	-9	15
COCCN1C(=O)C(C(=O)OC)CC2=C1CC(C)(C)CC2=O (stereo unspecified)	6	5	3787	/	1.0	4	-27
CCCn1c(N)c(N(CCOC)C(=O)c2ccccc2)c(=O)[nH]c1=O	-4	2	5242	-2	7.2	-6	-21
CCc1ccc(OCC(=O)NN=C(C)c2ccc(-n3ccnc3)cc2)cc1	3	5	/	/	1.9	7	/
O=C(NC(NC(=S)Nc1ccc(Cl)c(Cl)c1)C(Cl)(Cl)Cl)c1ccco1 (stereo unspecified)	-49	4	2870	18	-29	-2	-9
CC(=O)Nc1ccc(OCCCNC(=O)c2c(-c3ccccc3)noc2C)cc1	-3	5	/	-4	4.2	-4	-13
COc1ccc(CN2CCNC(=O)C2CC(=O)N(C)Cc2ccon2)c(OC)c1 (stereo unspecified)	6	-1	3784	5	4.6	4	-7
COc1ccc(S(=O)(=O)NC2CCCCC2)cc1-n1cnnn1	-3	0	3720	/	-5.3	0	-8
O=C(CSc1nnc(-c2ccncc2)n1-c1ccc(Cl)cc1)NCc1cccs1	5	23	4475	3	5.9	15	-16
Cc1nc(C)c(C(=O)N2CCCC(C(=O)c3cc(F)ccc3F)C2)s1 (stereo unspecified)	7	6	6685	-2	6.1	12	-37
CN1CC[C@]23c4c5ccc(OC6OC(C(=O)O)[C@@H](O)C(O)[C@H]6O)c4OC2C(O)C=CC3[C@H]1C5 (stereo partly specified)	10	/	4873	/	4.3	/	10

Some values from the list.
C=CCNC(=O)c1ccc(Sc2ccccc2)c([N+](=O)[O-])c1 | Sa ugtP lethal = 0
Cc1cccc(OCCSc2nc3c([nH]2)c(=N)ncn3Cc2ccccc2)c1 | Sa RN4220 lethal = -1.4

New compounds follow
structure	Sa ugtP lethal	Mtb hypoxia inh growth	Bead autofluor	BJeLR lethal	Sa RN4220 lethal	Mtb hypoxia inh	PrP UTR inh
COc1ccc(N/C(N)=N/c2nc(CSc3nnc(C)s3)cc(=O)[nH]2)cc1	4	12	3846	3	1.0	8	-61
NCCc1c[nH]c2ccc(O)cc12	/	/	5541	-7	/	/	-14
CN1C(=O)/C(=C/c2ccc(OCc3ccccc3F)cc2)NC1=S	11	1	3534	-1	6.7	-9	-18
CC(C)Cn1c(N)c(C(=O)COC(=O)[C@@H]2CCCN2C(=O)c2cccs2)c(=O)n(C)c1=O	0	0	4691	-3	2.1	8	-15
COc1ccc(-n2c(SCCC#N)nnc2-c2cc(Cl)ccc2OC)cc1Cl	12	7	3153	-6	2.0	8	-8
Cc1ccc(S(=O)(=O)N2CCCCC2C(=O)O)s1 (stereo unspecified)	6	7	2010	-1	3.0	-3	-6
O=C(O)CC(SCC(=O)Nc1ccc(Cl)c(S(=O)(=O)N2CCOCC2)c1)C(=O)O (stereo unspecified)	2	-7	4282	5	10	4	-22
O=C(COc1ccc(F)cc1)Nc1c(C(=O)N2CCC(N3CCCCC3)CC2)oc2ccccc12	3	-2	6087	-2	1.2	-6	-16
C=CCn1c(=O)c2c(C)c(C)sc2n2c(Nc3ccc(OC)cc3)nnc12	9	/	3420	5	2.1	/	1
Oc1[nH]c2ccccc2c1C=Nc1ccccc1	-5	1	5132	19	3.7	8	-68
Fc1ccc(-n2cc(-c3ccccc3)c3c(=S)nc[nH]c32)cc1	/	/	5297	-2	/	/	-12
NC(=O)CC(NC(=O)c1ccc(Br)cc1)c1ccc(N2CCCCCCC2)c([N+](=O)[O-])c1 (stereo unspecified)	32	11	3921	-9	-7.6	6	-13
CCOc1cc(/C=N/O)cc(Br)c1OC	/	/	10644	-6	/	/	-3
COc1ccc(S(=O)(=O)N2CCC(C(=O)Nc3cc(Cl)ccc3N3CCOCC3)CC2)cc1OC	5	8	/	-1	-3.8	-4	-11
COC(=O)c1cc(NS(=O)(=O)c2ccc(N3CCC(C)CC3)c([N+](=O)[O-])c2)cc(C(=O)OC)c1	7	2	2388	-7	-10	4	-2
CS(=O)(=O)NCc1ccc(C(=O)NC2CCCCC2)cc1	1	19	5837	-10	3.8	7	2
Cc1cccc(OCc2nnc(SCC(=O)NC3CCCC3)n2C)c1	7	11	3674	3	-1.3	6	-19
COc1ccc(C2CC(c3cccs3)=NN2C(=O)COC(=O)C2CCCCC2)cc1OC (stereo unspecified)	0	8	4370	-11	16	3	-14
COCC(=O)N1CCC(n2nnc3cc(F)ccc32)CC1	2	1	3811	-4	3.4	14	-14
CCc1ccc(N2C(=O)C3CCCN3C2=S)cc1 (stereo unspecified)	-1	-1	4201	-3	1.8	0	-14
COCCn1c(=O)[nH]c(=O)c2cc(C(=O)c3cc(OC)ccc3O)cnc21	8	2	2301	-6	1.8	4	-4
O=[N+]([O-])c1ccc(O)c(C=Nc2ccc3nc(-c4ccccc4)[nH]c3c2)c1	66	10	2159	5	88*	14	-36
C=CCSc1nnc(CNS(=O)(=O)c2ccc(C)cc2)n1C	5	-9	5394	8	-1.5	7	-12
CN(C)c1cccc(C(=O)N2CCCC(CCC(=O)NCc3ccccc3F)C2)c1 (stereo unspecified)	8	-5	4183	-8	3.6	-2	-6
N#Cc1ccc(NC(=O)CN2C(=O)NC3(CCCCCCC3)C2=O)cc1Cl	-13	-4	8225	/	-4.8	4	3
COc1cc(C[C@@H]2C(=O)OC[C@H]2Cc2ccc(OC)c(OC)c2)ccc1O	-2	4	3545	/	-6.6	13	-8
COc1cccc(OCC(=O)NN=C2c3ccccc3-c3ccccc32)c1	-20	5	8033	2	8.7	3	-12
